VDR inh: inhibitors of human vitamin D receptor; VDR-SRC2-3 peptide fluorescence polarization, 2 h; Potency, µM, inactives show max response, negative = inhibition, actives largely listed as inhibitors; P11473; 0.93% of 400,000 active; active means well fitted inhibition curve with a large enough effect; inconclusive means small, poorly fitted or top-dose-only effect, or another doubt; inactive means no such curve, though single readings can be large or run the other way; further: series mostly up to about 120 µM
Target sequence (P11473 whole entry, looked up): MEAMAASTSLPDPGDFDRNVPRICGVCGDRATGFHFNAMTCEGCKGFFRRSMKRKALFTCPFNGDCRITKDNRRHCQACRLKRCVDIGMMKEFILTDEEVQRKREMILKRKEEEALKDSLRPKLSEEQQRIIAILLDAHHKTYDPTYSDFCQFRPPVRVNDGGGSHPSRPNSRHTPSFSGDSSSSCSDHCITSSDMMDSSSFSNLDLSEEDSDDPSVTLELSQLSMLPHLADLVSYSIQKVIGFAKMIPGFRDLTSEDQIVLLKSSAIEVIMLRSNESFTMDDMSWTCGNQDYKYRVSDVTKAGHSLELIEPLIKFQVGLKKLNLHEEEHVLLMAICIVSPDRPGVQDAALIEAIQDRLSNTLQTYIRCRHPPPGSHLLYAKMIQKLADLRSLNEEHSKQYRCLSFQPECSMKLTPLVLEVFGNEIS
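After 23 nl compound addition and a short centrifugation, plates sat for 2 hours at ambient temperature; polarization of fluorescence then indicated loss of VDR binding to peptide SRC2-3.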
Numbers without * were called inactive; ? = inconclusive; [ ] = dose if it differs, or a comment. On the % scale 0 is the no-effect control and ±100 the full control effect; potency means the concentration at half of the fitted maximal effect. Not all compounds are listed; rates above refer to the full screens.

SMILES	VDR inh
COCCn1c(CNc2ccc(F)cc2)nnc1SCC(=O)Nc1ccc(OC)cc1OC	-10%
COc1ccc(-c2noc(-c3ccc(NCCc4ccccc4)c([N+](=O)[O-])c3)n2)cc1	11%
CC(C)c1ccc(C2NC(=O)NC3=C2CCc2ccccc23)cc1 (configuration not stated)	-11%
O=C(CCCn1c(=O)[nH]c2ccsc2c1=O)Nc1ccc(F)cc1	-1%
O=C(NCCc1ccccc1)c1ccc(=O)[nH]c1	13%
CCCn1c2ccccc2c2cnn(CC(=O)NCC3CCN(Cc4ccccc4C)CC3)c(=O)c21	11%
CCOc1ccccc1C(=O)NCCNC(=O)c1ccccc1OCC	10%
CC(C)C[C@@H](CO)NC(=O)CC[C@H](NC(=O)OC(C)(C)C)C(=O)N(Cc1ccccc1)Cc1ccccc1	0%
COCc1cc(C)nc(N/N=C/c2ccc(-c3ccc(Cl)cc3[N+](=O)[O-])o2)c1C#N	-4%
CC(C)(C)OC(=O)N1CCCC1C(=O)N1CCCC1C(=O)N1CCCC1C(=O)O (configuration not stated)	-4%
C/C(=N\NC(=O)c1c(Br)c(C)nn1C)c1cccc(NC(=O)c2ccccc2C)c1	-1%
CSc1n[nH]c(=S)n1N	-18%
O=C(NCc1ccccc1)c1cc(Sc2cccc(Cl)c2)nc2ccccc12	12%
COc1ccc(CCN2CC(C(=O)N3CCC(OC)CC3)CCC2=O)cc1 (configuration not stated)	11%
Cc1ccc2oc3c(c(=O)c2c1)C(c1ccccc1F)N(CCCN1CCOCC1)C3=O (configuration not stated)	1%
Cc1ccc(C(=O)NCCNS(=O)(=O)c2ccccc2)cc1	7%
OCC[C@@H]1C[C@@H](O)[C@H](O)[C@@]2(CCc3ccccc3O2)O1	0%
N#Cc1ccccc1NC(=O)C(=O)NCCc1csc2nc(-c3cccc(F)c3)nn12	10%
COc1cc(OC)cc(N(C(=O)CNC(=O)c2ccco2)C(C(=O)NCC2CCCO2)c2ccccc2)c1 (configuration not stated)	-20%
CCCNC(=O)N[C@@H](Cc1ccccc1)C(=O)OC	12%
Cc1ccc(-c2csc(N3CCN(c4cc5c(cc4Cl)nc(C(C)N)n5CCCO)CC3)n2)cc1 (configuration not stated)	-1%
COc1ccc(Nc2oc(COc3ccccc3OC)nc2C#N)cc1	-19%
Cc1ccc(S(=O)(=O)N2CCC(C(=O)OCC(=O)NC(C)c3ccc(F)cc3)CC2)cc1C (configuration not stated)	9%
CCc1ccc(CNC(=O)c2ccc3c(c2)NC(=O)C(N2CCOCC2)S3)cc1 (configuration not stated)	5%
CCCCc1ccc(C(=O)Nc2ccc3nc(N4CCN(CC)CC4)cc(C)c3c2)cc1	7%

Ordered by value in VDR inh (falling): three from the list above
SMILES	VDR inh
COc1ccc(CCN2CC(C(=O)N3CCC(OC)CC3)CCC2=O)cc1 (configuration not stated)	11%
Cc1ccc(C(=O)NCCNS(=O)(=O)c2ccccc2)cc1	7%
Cc1ccc2oc3c(c(=O)c2c1)C(c1ccccc1F)N(CCCN1CCOCC1)C3=O (configuration not stated)	1%

(continued)
SMILES	VDR inh
CC(=O)c1c(C)[nH]c(C(=O)/C(C#N)=C/c2cccc(C)c2)c1C	-24%
CCOc1ccc(NC(=S)NCCCN2CCOCC2)cc1	2%
Cc1ccc(S(=O)(=O)N2CCCCC2)cc1NS(=O)(=O)c1ccccc1F	-6%
O=C1c2ccccc2C(Nc2cccnc2)N1Cc1ccc2c(c1)OCO2 (configuration not stated)	-10%
O=C(c1ccco1)N1CCN(c2ncnc3scc(-c4cccs4)c23)CC1	-6%
O=C(CSc1nccn1-c1cccc(F)c1)NC1CCCC1	11%
COCCn1c(C)cc(C(=O)COC(=O)c2ccc([N+](=O)[O-])o2)c1C	-1%
O=C(CCn1c(=S)[nH]c2ccccc2c1=O)NCCc1ccccc1	-7%
Cn1c2ccccc2c2cc(/C=C(\NC(=O)c3ccccc3)C(=O)O)ccc21	-19%
c1coc(CNc2nc(-c3cccs3)cs2)c1	-22%
CCc1ccc(C(=O)NC2=NC(c3ccccc3F)CC(=O)N2)cc1 (configuration not stated)	-7%
CCOc1ccc(C(C)=O)cc1COC(=O)CNC(=O)c1cccs1	2%
COc1ccc(CC(CC(=O)O)C(=O)NCc2ccccc2)cc1 (configuration not stated)	-6%
COc1ccc(Cl)cc1S(=O)(=O)Nc1cccc(-c2ccc(N3CCOCC3)nn2)c1	-10%
CCN(CC)S(=O)(=O)c1ccc(N2CCOCC2)c(NC(=O)c2ccc3c(c2)OCCO3)c1	21%
CC(Oc1cccc(Br)c1)C(=O)NNC(=O)CCS(=O)(=O)c1ccccc1 (configuration not stated)	-10%
O=C(O)C1CCC(N2C(=O)C3C4CCC(C4)C3C2=O)CC1 (configuration not stated)	20%
O=C(Cn1ncn2c(cc3cc(F)ccc32)c1=O)NC1CCCCC1	6%
O=C(NCc1ccccc1)C1=C[C@H](c2csc3ccccc23)C[C@H](OCc2ccc(CO)cc2)O1	-11%
CCOC(=O)N1CCC(NC(=O)c2cnn3c(C(F)(F)F)cc(-c4cccc(OC)c4)nc23)CC1	40%[activator]
CCOc1ccccc1Nc1nnc(SC(C)C(=O)Nc2nc(-c3ccccc3)cs2)s1 (configuration not stated)	-12%
Cc1cc(C)c(NC(=O)c2nc3ccccc3nc2N2CCCCC2)c(C)c1	3%
CCOc1ccc(NC(=O)C(NC(=O)C2CCC(C)CC2)C(C)C)cc1 (configuration not stated)	?
COc1ccccc1-c1nnc2sc(C3CCCCC3)nn12	8%
CN(C)S(=O)(=O)c1ccc2c(c1)Cc1cc(S(=O)(=O)N(C)C)ccc1-2	-10%
(further entries)
SMILES	VDR inh
O=C(Nc1ccc2c3c(cccc13)CC2)c1ccc(Br)o1	-26%
O=C(COC(=O)c1ccccc1C(=O)N1CCN(c2ccccc2)CC1)Nc1ccc(F)cc1	-7%
O=c1cc(Cc2nnc(SCc3ccccc3)n2-c2ccc(Cl)cc2)[nH]c(=O)[nH]1	0%
CN(C)c1ccc(C=NNC(=O)c2cccnc2)cc1	8%
O=C(O)c1ccc(-c2nc(-c3ccccc3)c(-c3cccs3)[nH]2)cc1	-5%
Clc1ccc(-c2noc(CN3CCN(c4ccccc4)CC3)n2)cc1	-1%
Cn1c(=NC(=O)C2=NNC(=O)CC2)sc2ccccc21	-3%
COc1ccc(C(=O)N2CCC3(CC2)CN(C(=O)NC(C)C)C3)cc1	-2%
CN(CC(=O)NCc1ccccc1)Cc1ccc(Cl)cc1	-5%
CC(=O)c1ccc(N2CCN(C(=O)c3ccc(Cl)c(NC4=NC5CS(=O)(=O)CC5S4)c3)CC2)cc1 (configuration not stated)	-24%
CC(NC(=O)c1ccco1)C(c1cccs1)N1CCN(c2ccccc2)CC1 (configuration not stated)	-22%
CC(=O)Nc1ccc(S(=O)(=O)N2CCN(C(=O)C3COc4ccccc4O3)CC2)cc1 (configuration not stated)	-1%
CCCn1c(O)c(N=NC(=O)CNC(=O)c2cccnc2)c2ccccc21	-15%
COc1ccc(NC(=O)Cn2ccn(Cc3ccccc3)c(=O)c2=O)cc1Cl	-11%
CC(=O)N(CCc1ccccc1C)Cc1cc2ccc(C)cc2[nH]c1=O	-14%
CN(CCOc1ccccc1)c1ccc(S(=O)(=O)N2CCCCC2)cn1	-9%
NC(=O)[C@@H]1CCCN1Cc1nc(-c2cccs2)no1	-11%
O=C(Nc1ccc2c(c1)OCO2)[C@@H]1CCCN1S(=O)(=O)c1cccc2cccnc12	6%
Cc1cccc(NC(=O)c2ccc(-n3cnc4cccnc43)cc2)c1C	10%
CCN(CC)CCn1c(NCc2ccc(OC)cc2)nc2ccccc21	-4%
CCC(=O)NC(=S)Nc1ccc(NC(=O)c2ccccc2[N+](=O)[O-])cc1	-25%
CN(C)c1ccc(CN(C(=O)c2cc3ccccc3oc2=O)C2CCS(=O)(=O)C2)cc1 (configuration not stated)	5%
O=S(=O)(c1c(F)cccc1F)N1CCCC2CCCCC21 (configuration not stated)	-5%
Cc1nn(-c2ccccc2)c(N)c1C(c1ccccc1)c1c(C)nn(-c2ccccc2)c1N	-1%
C[C@@H](C(=O)Nc1nc(-c2ccccn2)cs1)N1C(=O)C2CCCCC2C1=O (some centres not stated)	?
Additional compounds:
SMILES	VDR inh
COCCNC(=S)N1CCCC(CO)C1 (configuration not stated)	-28%
COc1ccc(-c2ccc(=O)n(CC(=O)Nc3cc(OC)ccc3OC)n2)cc1	15%
O=C(O)COc1ccc(Br)cc1CP(=O)(c1ccccc1)c1ccccc1	20%
CCn1cc(C(=O)O)c(=O)c2cc(F)c(N3CCN(S(=O)(=O)c4ccc(NC(C)=O)cc4)CC3)cc21	-5%
COc1ccc(C(=O)NC(=S)Nc2ccc(N3CCOCC3)cc2)cc1Cl	8%
CC(=O)N(Cc1cccnc1)c1cccc(-c2nc3ccccc3s2)c1	-5%
CC(C)C1Oc2ccccc2N(CC(=O)NC2CCCCC2)C1=O (configuration not stated)	-6%
O=C(CNC(=O)N1CC(=O)Nc2ccccc21)Nc1cc(Cl)ccc1Cl	-12%
Cc1ccc(Cl)cc1N1CCN(C(=O)C2(S(=O)(=O)c3ccc(Cl)cc3)CC2)CC1	-15%
COc1ccc(C(=O)Nc2ccccc2C(=O)O)cc1NC(=O)C(c1ccccc1)c1ccccc1	-28%
CN1CCN(S(=O)(=O)c2ccc(NC(=S)NC(=O)c3ccc(Cl)cc3)cc2)CC1	-16%
CCOC(=O)C1=C(N)OC2=C(C(=O)CC(C)(C)C2)C1C1CCCCC1 (configuration not stated)	-3%
CC(C)[C@H](NC(=O)c1ccc(Cl)c([N+](=O)[O-])c1)C(=O)NCc1ccc(Cl)cc1Cl	6%
Cc1nn(-c2ccccc2)c(N2CCCC2)c1/C=N/NC(=O)c1cc(-c2cccs2)nc2ccccc12	-3%
O=C(NCCN1CCOCC1)c1cc(-c2ccc(F)cc2)on1	9%
CC1CN(C(=O)COC(=O)c2ccc(NC(=O)CC#N)cc2)CC(C)O1 (configuration not stated)	1%
CCc1nnc(NC(=O)c2ccc(C)o2)s1	3%
CCCN(CCC)C(=O)Cn1c(=O)n(-c2ccc(CC)cc2)c(=O)c2c3c(sc21)CCC3	17%
CSc1ccc(NC(=O)/C=C/C(=O)O)cc1	16%
O=C(O)C1CCCN(C(=O)c2cccc3ccccc23)C1 (configuration not stated)	-3%
CCOC(=O)c1ccccc1N1C(=O)C2Sc3[nH]c(=O)sc3C(/C=C/c3ccccc3)C2C1=O (configuration not stated)	-26%
CCc1ccccc1NC(=O)C1CCCN(c2ncnc3onc(-c4ccc(F)cc4)c23)C1 (configuration not stated)	-8%
Cc1c(Cl)cnc(NC(=O)COC(=O)CNC(=O)c2ccccc2)c1Cl	-10%
O=C(c1ccc2c(c1)OCCO2)N(Cc1cccnc1)c1nc2c(F)cc(F)cc2s1	-12%
COc1ccc(CNC(=O)CN2C(=O)CCCc3ccccc32)cc1	3%

Looked up above.
VDR inh, `CC(=O)N(Cc1cccnc1)c1cccc(-c2nc3ccccc3s2)c1` stands at -5%
VDR inh, `O=C(c1ccc2c(c1)OCCO2)N(Cc1cccnc1)c1nc2c(F)cc(F)cc2s1` stands at -12%
VDR inh, `CSc1ccc(NC(=O)/C=C/C(=O)O)cc1` stands at 16%
VDR inh, `CCc1ccccc1NC(=O)C1CCCN(c2ncnc3onc(-c4ccc(F)cc4)c23)C1` (configuration not stated) stands at -8%
VDR inh, `Cc1ccc(Cl)cc1N1CCN(C(=O)C2(S(=O)(=O)c3ccc(Cl)cc3)CC2)CC1` stands at -15%
VDR inh, `CN1CCN(S(=O)(=O)c2ccc(NC(=S)NC(=O)c3ccc(Cl)cc3)cc2)CC1` stands at -16%

Carrying on:
SMILES	VDR inh
CCCCN(C)CCNC(=O)Cn1ncc2c3ccccc3n(CCC)c2c1=O	-7%
COc1ccc(CC2(C)OC(c3ccc(C)c([N+](=O)[O-])c3)=NN2C(C)=O)cc1 (configuration not stated)	-11%
O=C(CSc1nc2ccccc2o1)Nc1ccc(Cl)cc1	-4%
Cn1c(N)cc(=O)n(Cc2ccccc2)c1=O	7%
COc1ccc(CCNC(=O)Cc2cc(OC)c(OC)cc2Br)cc1OC	15%
CCC(c1ccc(O)c(O)c1)C(CC)c1ccc(O)c(O)c1 (configuration not stated)	5%
CC1CC1C(=O)OCC(=O)Nc1cccc([N+](=O)[O-])c1 (configuration not stated)	?
COCc1cc(=O)[nH]c(/N=C(\N)Nc2ccc(Oc3ccccc3)cc2)n1	6%
Cc1ccc(C)n1-c1nccc(-c2ccco2)n1	5%
O=C(NNS(=O)(=O)c1cc(Cl)cc(Cl)c1)c1sccc1-n1cccc1	-4%
O=S(=O)(c1ccccc1)c1nnn2c1nc(NC1CCN(Cc3ccccc3)CC1)c1ccccc12	15%
O=C(CNC(=O)c1ccc(-c2ccccc2)cc1)Nc1cccc(CO)c1	9%
O=C1C2C3c4ccccc4C(c4ccccc43)C2C(=O)N1Cc1ccco1 (configuration not stated)	0%
COc1ccc(N=Nc2ccc(O)c3ncccc23)cc1	-5%
CCCn1c(SCC(=O)Nc2cc(S(=O)(=O)N3CCOCC3)ccc2OC)n[nH]c1=O	13%
O=C(NCc1ccncc1)C(=O)NCc1ccco1	-19%
CCN1CCCC1CNC(=O)c1cc(S(=O)(=O)N(C)C)ccc1Cl (configuration not stated)	9%
CCOC(=O)CC(=O)CSc1ncnc2c1nnn2-c1ccc(F)cc1	-7%
CCCCCCCC[n+]1cccc(C(=O)N2c3c(nc(N)[nH]c3=O)NC(C)C2C)c1 (configuration not stated)	1%

Part of the list above in another layout:
VDR inh	mol
5%	Cc1ccc(C)n1-c1nccc(-c2ccco2)n1
-4%	O=C(NNS(=O)(=O)c1cc(Cl)cc(Cl)c1)c1sccc1-n1cccc1
15%	O=S(=O)(c1ccccc1)c1nnn2c1nc(NC1CCN(Cc3ccccc3)CC1)c1ccccc12
9%	O=C(CNC(=O)c1ccc(-c2ccccc2)cc1)Nc1cccc(CO)c1
0%	O=C1C2C3c4ccccc4C(c4ccccc43)C2C(=O)N1Cc1ccco1 (configuration not stated)
-5%	COc1ccc(N=Nc2ccc(O)c3ncccc23)cc1
13%	CCCn1c(SCC(=O)Nc2cc(S(=O)(=O)N3CCOCC3)ccc2OC)n[nH]c1=O

Screening results: PubChem BioAssay, National Center for Advancing Translational Sciences (NCATS)
